FGF22 binding: shifts melting point of recombinant human FGF22 | Q9HCT0 | recombinant FGF22 thermal shift, SYPRO orange fluorescence; percent of sucrose octasulfate shift, DMSO zero | calls only at 9.99 µM | 1.5% of 340,000 active;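 active = melting point raised past a set limit in the mean and every replicate; three in four hits are not shown here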
Target sequence (Q9HCT0 whole entry, looked up): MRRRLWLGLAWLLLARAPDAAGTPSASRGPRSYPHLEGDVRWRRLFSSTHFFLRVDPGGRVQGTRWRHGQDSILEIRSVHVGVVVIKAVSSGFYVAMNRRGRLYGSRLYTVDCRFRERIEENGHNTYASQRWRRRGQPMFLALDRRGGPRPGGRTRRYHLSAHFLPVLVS
HNF4A DNA FP: change in binding of human HNF4 alpha to DNA | P41235 | HNF4a-FITC DNA binding, fluorescence polarization, 1 h | activity change, % at 10 µM | 0.3% of 360,000 active | AID 1224865; in the data active = activity change above about 30%, passing the limit was not always enough;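 also: controls were the assay level and a saturating level of protein; the project sought stronger binding though the title names inhibitors; some compounds called inactive have numbers as strong as hits; positive values seem to mean higher polarization but the record does not say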
Target sequence (P41235 whole entry, looked up): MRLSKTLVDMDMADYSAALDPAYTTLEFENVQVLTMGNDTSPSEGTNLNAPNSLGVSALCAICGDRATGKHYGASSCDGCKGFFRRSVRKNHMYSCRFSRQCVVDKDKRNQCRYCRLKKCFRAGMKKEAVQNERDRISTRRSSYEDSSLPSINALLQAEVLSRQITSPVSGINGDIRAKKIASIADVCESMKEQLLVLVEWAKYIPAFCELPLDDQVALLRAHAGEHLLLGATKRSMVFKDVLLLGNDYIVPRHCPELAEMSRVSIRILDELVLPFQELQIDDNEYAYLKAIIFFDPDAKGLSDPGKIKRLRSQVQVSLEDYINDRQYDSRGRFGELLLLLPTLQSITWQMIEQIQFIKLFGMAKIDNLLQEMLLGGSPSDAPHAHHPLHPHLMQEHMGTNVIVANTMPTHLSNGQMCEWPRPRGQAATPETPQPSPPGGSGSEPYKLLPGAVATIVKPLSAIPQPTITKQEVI
Numbers without * were called inactive; i = inactive; . = no result given.

SMILES	FGF22 binding	HNF4A DNA FP
CCCCNC(=O)C1c2ccccc2OCC(=O)N1Cc1cccnc1 (stereo unspecified)	i	4.2
CC(C)Sc1nc(-c2cccs2)nc2cc(Cl)ccc12	i	-2.8
Cc1cc(Cl)ccc1-c1nc(NCc2ccccc2)nc2ccsc12	i	1.7
COC(=O)C1(C)CCc2c(ccc3ccccc23)C1=O (stereo unspecified)	i	0.9
CC1=C(C(=O)N2CCOCC2)CC(CC(=O)NCCCN(C)C)C(=O)N1Cc1ccc(C(C)(C)C)cc1 (stereo unspecified)	i	1.7
CCN(CC)C(=O)c1ccc(Cc2cn(C)c3ccccc23)nc1	i	5.1
CC1CCN(S(=O)(=O)c2cccc(C(=O)NC3CCS(=O)(=O)C3)c2)CC1 (stereo unspecified)	i	-1.3
OC[C@@H]1CN(Cc2ccccc2)C[C@H](n2cnc3c(NCc4ccncc4)ncnc32)O1	i	-0.1
N#CCSc1ccccc1NC(=O)CN1C(=O)NC(CCc2ccccc2)C1=O (stereo unspecified)	i	7.1
O=S1(=O)CC(N2CCCCC2)CN1Cc1cn(Cc2ccccc2)nn1 (stereo unspecified)	i	-2.2
COc1ccc(-c2cnc3c(NC=O)cc(-c4ccccc4)cn23)cc1OC	i	4.6
CCCCOCCCNC(=O)C[C@@H]1C[C@@]2(C(=O)OCC)CCC=C2N(Cc2ccc3c(c2)OCO3)C1=O	i	-2.0
COc1ccc(CCN2C(=O)c3ccccc3C2c2nnnn2-c2c(C)cccc2C)cc1OC (stereo unspecified)	i	14
COc1ccc(S(=O)(=O)N2CCN(CC(=O)c3c(N)n(C)c(=O)n(C)c3=O)CC2)cc1OC	i	3.2
CC(C)n1[nH]c2ccccc2c1=O	i	0.6

The last 3 records of the section before come first, to join the parts.
SMILES	FGF22 binding	HNF4A DNA FP
COc1ccc(CCN2C(=O)c3ccccc3C2c2nnnn2-c2c(C)cccc2C)cc1OC (stereo unspecified)	i	14
COc1ccc(S(=O)(=O)N2CCN(CC(=O)c3c(N)n(C)c(=O)n(C)c3=O)CC2)cc1OC	i	3.2
CC(C)n1[nH]c2ccccc2c1=O	i	0.6
CC(=O)C[C@@H]1OC[C@H](CO)N1S(=O)(=O)c1ccc(C)cc1	i	-1.5
CCCCNC(=O)c1ccc(Cc2cn(C)c3ccccc23)nc1	i	-0.6
COc1ccc(C2=C(c3ccccc3)OC(OC)c3cc(F)ccc32)cn1 (stereo unspecified)	i	-2.1
O=c1ccn([C@@H]2O[C@H](CNCc3ccccc3)[C@@H](O)[C@H]2O)c(=O)[nH]1	i	-1.0
COc1ccc(OC)c(C=NN=Cc2cc(OC)ccc2OC)c1	i	-1.8
CC(C)(C)NC(=O)C1(C)CCC(=O)N1C1CC1 (stereo unspecified)	i	-0.8
COc1ccc(-c2ccc(C(=O)NCC3CCOCC3)c3occc23)c(C)c1	i	1.4
COc1ccc(CCNC(=O)c2c(O)c3cc(OC)c(OC)cc3[nH]c2=O)cc1OC	i	5.0
CC(C)CC1OC(C)CC2=C1C(=O)OC(C)(C)O2 (stereo unspecified)	i	3.0
O=C(NC1CCCCC1)C1c2ccccc2OCC(=O)N1Cc1cccnc1 (stereo unspecified)	i	3.4
CCOc1ccccc1NC(=O)CCNC(=O)C1CCN(S(=O)(=O)c2ccccc2)CC1	i	-0.5
COc1ccc2cc3[n+](cc2c1O)CCc1cc2c(cc1-3)OCO2	i	-34
Cc1ccc(OCCN2CCC2(C)C(=O)NCc2cccc3ccccc23)cc1 (stereo unspecified)	i	-1.1
Cc1ccc(C)c(C(O)c2ncc(-c3ccc(F)cc3)[nH]2)c1 (stereo unspecified)	i	0.3
O=C(O)c1ccccc1C(=O)OCC1CCC(=NO)CC1 (stereo unspecified)	i	1.3
Brc1ccc2nc(-c3ccco3)c(CC3CCCCC3)n2c1	i	-12
CC1=C(C(=O)N2CCOCC2)CC(CC(=O)NCC2CCCCC2)C(=O)N1Cc1ccc(C(C)(C)C)cc1 (stereo unspecified)	i	0.6
CCc1nc2ccc(C(=O)NC3CCN(Cc4ccccc4)CC3)cn2c1N(C)Cc1cccs1	i	3.9
Cc1cccc(CN2CCN(C3CN(Cc4cn(Cc5ccccc5C(F)(F)F)nn4)S(=O)(=O)C3)CC2)c1 (stereo unspecified)	i	3.4
CCOCCC(=O)Nc1ccc2c(c1)c(=O)n(C)n2-c1ccc2ccccc2c1	i	1.0
Cc1cc(C)nc(Nc2nc(C(N)Cc3ccccc3)cs2)n1 (stereo unspecified)	i	0.7
CC(=O)NCCNC(=O)C1(C)Cc2c(-c3ccccc3)ccnc2O1 (stereo unspecified)	i	2.1
N#CCCN(Cc1ccccc1)C(=O)CCC(=O)c1ccc(F)cc1	i	5.8
COc1ccc(-c2cnc3c(NC(C)=O)cc(-c4ccc(S(C)(=O)=O)cc4)cn23)cc1OC	i	-1.8
O=C(C1=NOC2(C1)C(=O)Nc1ccccc12)N1CCCC1 (stereo unspecified)	i	5.8
COc1ccccc1CCC(=O)Nc1ccc2c(c1)c(=O)n(C)n2-c1cccs1	i	4.2
COc1ccc(Cc2nc3ccc(C(=O)N(C)Cc4nccn4C)cc3o2)cc1	i	2.2
CCN1C(=O)[C@H]2[C@@H](c3ccccc3)N[C@]3(CCCN(Cc4ccccc4)C3=O)[C@H]2C1=O	i	4.4
CCc1nc2c(OCc3ccc(Cl)cc3)cccn2c1N(C)C(=O)c1ccco1	i	4.0
COc1ccc(NC(=O)C[C@@H]2C(=O)N(c3ccc(OC)cc3)CC2(C)C)cc1	i	-1.0
Cc1cc(F)ccc1C(O)c1ncc(-c2ccccc2F)[nH]1 (stereo unspecified)	i	0.5
COc1ccc(F)cc1-c1cc(NC=O)c2ncc(-c3cc(OC)c(OC)c(OC)c3)n2c1	i	1.0
Cc1ccc(S(=O)(=O)NCc2ccccc2NS(=O)(=O)c2ccc(C)cc2)cc1	i	0.4
CC(=NCc1ccccc1)c1ccc(O)cc1O	i	-1.3
COCCNC(=O)C1(C)CCN(C(=O)C2(c3ccc(Cl)cc3)CCCC2)C1 (stereo unspecified)	i	-6.4
OC(c1ccccc1)(c1ccccc1)C1CCN(CCCOc2ccc3c(c2)CCCC3)CC1	i	-4.8
CC(C)(C)n1nnnc1C(c1cc2ccccc2o1)N1CCCC1 (stereo unspecified)	i	-3.8
O=[N+]([O-])c1ccc(-c2csc(COc3ccccc3)n2)cc1	i	-2.2
Nc1[nH]c(C(=O)c2ccccc2)c(-c2ccncc2)c1C(=O)NC1CC1	i	0.1
C=C1C(=O)N(C)CCC1C(CC)C(=O)OC (stereo unspecified)	i	-0.4
CCc1nc2c(OCc3ccc(C(F)(F)F)cc3)cccn2c1N(C)C(=O)C(C)C	i	5.8
CC(C)C[C@H]1CN(CCCC[C@@H]2CNC(=O)C(=O)N2CCc2ccccc2)C(=O)C(=O)N1Cc1ccccc1	i	-0.1
O=C(OCc1cn([C@@H]2CN(Cc3cccs3)[C@@H](c3ccccc3)C[C@H]2O)nn1)c1ccccc1	i	-1.6
O=C(Cc1csc2ccccc12)NCC1CC1	i	-1.3
OC[C@@H]1CN(Cc2ccc3c(c2)OCO3)C[C@H](n2cnc3c(NC4CCCC4)ncnc32)O1	i	3.0
CCCNC(=O)C1(C)CCCN(C(=O)c2ccc(OC(F)F)cc2)C1 (stereo unspecified)	i	-2.0
CSc1ncnc2c1ncn2CCCNCC(c1ccccc1)c1ccccc1	i	-4.0
CC1=C(C(=O)N(C(C)C)C(C)C)CC(CC(=O)NCCCCc2ccccc2)C(=O)N1CCC1=CCCCC1 (stereo unspecified)	i	2.7
CCOC(=O)C1CCCN(C(=O)c2ccc3ccccc3c2)CC1 (stereo unspecified)	i	-1.7
COc1cc(C(C)=O)ccc1OCC(=O)NCc1ccccc1CN1CCCC1	i	4.5
COC(=O)C1=CN(c2ccc(C(C)(C)C)cc2)C(N)=C(C#N)C1c1ccccc1F (stereo unspecified)	i	-1.7
C=Cc1ccc(Cn2c(C)c(C(=O)NCc3cccc(C)c3)sc2=O)cc1	i	2.9
COc1ccc(N2CCN(C(=O)CSc3nnc(C4CC4)n3C3CC3)CC2)cc1	i	3.2
Cc1cccc(C)c1-n1nnnc1C1(C)CCC(=O)N1CCc1ccc(O)cc1 (stereo unspecified)	i	0.5
CCCNC(=O)C1(C)CCCN(Cc2ccc(C)cc2)C1 (stereo unspecified)	i	-2.8
Cc1[nH]nc2c(=S)[nH]c(=O)[nH]c12	i	0.1
CC1(C(=O)NC2CCCCCC2)CCN1C(=O)C1(c2ccccc2)CC1 (stereo unspecified)	i	6.1
CCc1nc2c(OCc3ccc(C(F)(F)F)cc3)cccn2c1N(C)C(=O)c1ccc(C)cc1	i	3.4
Cc1cc(NC(=O)CN2C(=O)/C(=C/c3ccc(C(C)C)cc3)SC2=S)no1	i	-3.3
CCc1nc2c(OCc3ccc(Cl)cc3Cl)cccn2c1N(C)C(C)=O	i	1.3

New compounds follow
SMILES	FGF22 binding	HNF4A DNA FP
O=C(Nc1ccc(F)cc1)C(c1ccnc2ccccc12)N1CCN(c2cccc(C(F)(F)F)n2)CC1 (stereo unspecified)	i	4.0
COCCCNC(=O)C[C@@H]1C[C@@]2(C(=O)OC)CCCCC=C2N(Cc2cccc3ccccc23)C1=O	i	0.1
Cc1ccccc1CNC(=O)c1csc([C@@H]2C[C@H](O)[C@@H](CO)O2)n1	i	0.1
CCn1cc(/C=C(\NC(=O)c2ccc(OC)cc2)C(=O)NCCCn2ccnc2)c2ccccc21	i	4.3
Cc1cccnc1C1=NOC(Cc2ccccc2)C(=O)N1Cc1ccc(F)cc1 (stereo unspecified)	i	0.2
COC(=O)c1cnc(Nc2nc(C(N)COCc3ccccc3)cs2)nc1C(F)(F)F (stereo unspecified)	i	2.7
C=CCNc1ncnc2c1ncn2[C@H]1CN(CCc2ccccc2)C[C@@H](CO)O1	i	-0.3
O=S1(=O)CC(N2CCN(CC3CC3)CC2)CN1Cc1cn(Cc2ccccc2C(F)(F)F)nn1 (stereo unspecified)	i	3.3
CC(C)c1cccc(-c2csc(C(C)(O)c3cccc(F)c3)n2)c1 (stereo unspecified)	i	1.5
CN(C(=O)COc1ccccc1)c1ccc([N+](=O)[O-])cc1	i	1.6
CC1(C(=O)NS(=O)(=O)c2ccc3c(c2)CCO3)CCN1C(=O)c1ccccc1CCc1ccccc1 (stereo unspecified)	i	0.3
COc1cccc(-c2nnn(CC(=O)N(C3CCCCC3)C3CCS(=O)(=O)C3)n2)c1 (stereo unspecified)	i	-1.5
C[C@@H]1CN([C@H](C)CO)C(=O)CCCn2nncc2CO[C@@H]1CN(C)C(=O)NC1CCCCC1	i	1.6
OC[C@@H]1CN(CCN2CCOCC2)C[C@H](n2cnc3c(N4CCOCC4)ncnc32)O1	i	-2.8
CCc1ccc(NC(=O)CSc2nc(C)cs2)cc1	i	5.6

Reformatted: results already given
Order of values: FGF22 binding	HNF4A DNA FP
- O=S1(=O)CC(N2CCCCC2)CN1Cc1cn(Cc2ccccc2)nn1 (stereo unspecified)
 : i	-2.2
- COc1ccc(-c2cnc3c(NC=O)cc(-c4ccccc4)cn23)cc1OC
 : i	4.6
- CCCCOCCCNC(=O)C[C@@H]1C[C@@]2(C(=O)OCC)CCC=C2N(Cc2ccc3c(c2)OCO3)C1=O
 : i	-2.0
- COc1ccc(CCN2C(=O)c3ccccc3C2c2nnnn2-c2c(C)cccc2C)cc1OC (stereo unspecified)
 : i	14
- COc1ccc(S(=O)(=O)N2CCN(CC(=O)c3c(N)n(C)c(=O)n(C)c3=O)CC2)cc1OC
 : i	3.2

Continuation.
SMILES	FGF22 binding	HNF4A DNA FP
CCOC(=O)[C@]12CCCC=C1N(Cc1ccccc1)C(=O)[C@H](CC(=O)N1CCC(c3ccccc3)CC1)C2	i	0.9
CCCCCCCCN1C(=O)[C@H](CC(=O)N2CCSCC2)C[C@@]2(C(=O)OC)CCCCC=C12	i	-1.1
NC(=O)CN1C(=O)C2C3CCC(C3)C2C1=O (stereo unspecified)	i	-0.4
COc1cc(F)ccc1-c1cc(C(=O)NCC2CCCCC2)[nH]n1	i	-0.1
CCCS(=O)(=O)NC(=O)C1(C)CCCN(C(=O)c2ccc3ccccc3c2)C1 (stereo unspecified)	i	2.6
CCNC(=O)C1(C)CCN(C(=O)c2cccnc2SC)C1 (stereo unspecified)	i	2.8
CCOC(=O)c1c(C)[nH]c(C)c1C(=O)COC(=O)/C=C/c1cccc([N+](=O)[O-])c1	i	4.6
Cc1cc(C)n2c(NC3CCCC3)c(-c3ccc(F)cc3)nc2n1	i	0.9
Cc1ccc2nc(C(C)(C)C)c(Cc3ccccc3C(F)(F)F)n2c1	i	2.7
CC1(C(=O)NS(=O)(=O)c2ccccc2OC(F)(F)F)CCN1C(=O)c1ccccc1 (stereo unspecified)	i	-3.0
CN(C)c1ccc(-c2ccnc3c2CC(C)(C(=O)NCC2CC2)O3)cc1 (stereo unspecified)	i	-0.3
CCOc1ccc(-c2cc(C(=O)Nc3ccc(C)c(NS(C)(=O)=O)c3)[nH]n2)c(C)c1	i	1.6
CC(=O)Nc1cc(-c2cccc(C(=O)N(C)C)c2)cn2c(-c3cccc(C(=O)N(C)C)c3)cnc12	i	-0.7
O=c1c2ccccc2sn1-c1ccc(Cl)cc1Cl	.	0.0
Cc1cccc(-c2cc3nc(C)cc(=O)n3[nH]2)c1	i	-0.4
COC(=O)C[C@@H]1C[C@@H]2c3cc(NC(=O)NC4CCCCC4)ccc3O[C@@H]2[C@H](CO)O1	i	0.6
COc1ccc(CC(N)c2csc(Nc3cnccn3)n2)cc1 (stereo unspecified)	i	2.4

The list is partial; the hit share may differ from the screen's.
